# High-throughput results from PubChem BioAssay.
# Vaccinia Venus: qHTS for Stage-Specific Inhibitors of Vaccinia Orthopoxvirus: Venus Reporter Primary qHTS | 330,000 compounds, 0.46% hits | Vaccinia virus Venus reporter expression, fluorescence | Potency, µM (titrated, usually from 36.5 µM), for the others: at the top dose activity change, negative = inhibition, most hits filed as inhibitors; active means well fitted inhibition curve with a large enough effect; inconclusive means small, poorly fitted or top-dose-only effect; inactive means no such curve, though single readings can be large or run the other way; tested in A549 cells; note: nearly all actives have a fitted effect of over 30% in size; inactives centre near -10
# VACV mCherry inh: qHTS for Stage-Specific Inhibitors of Vaccinia Orthopoxvirus: mCherry Reporter Primary qHTS. Vaccinia virus mCherry reporter infection, fluorescence; about a quarter of the inactives have no number. 310,000 compounds, 0.63% hits. Potency, µM (highest dose often 36.5 µM), for inactives: top-dose activity change, negative = inhibition, hits mostly inhibitors; active = well fitted inhibition curve with a large enough effect; inconclusive = small, poorly fitted or top-dose-only effect; inactive = no such curve, though single readings can be large or run the other way; tested in A549 cells; note: nearly all actives have a fitted effect of over 35% in size; inactives centre near -10
# * marks the source's active call; other numbers are inactive results; i = inactive; ? = inconclusive; . = not tested or not shown; & = joins results of further samples; [ ] = remark or other dose. % is set by controls: 0 for no effect and ±100 for the full control effect; potency is the fitted concentration of half-maximal effect.
SMILES,Vaccinia Venus,VACV mCherry inh
O=C(O)C1CCCN1C(=O)c1cncc(Br)c1 (centres undefined),-2%,0%
CCc1nc2c(OCC3COc4ccccc4O3)cccn2c1N(C)C(=O)c1ccccc1F (centres undefined),-6%,-20%
Cc1ccc(C(c2cc(Cl)c3cccnc3c2O)N2CCN(C)CC2)cc1 (centres undefined),?,?
CCOC=C1C(=O)N(C(C)=O)c2cc(OC)c(OC)cc21,7%,i
Cc1ccsc1C(=O)N(Cc1cc2ccc(F)cc2nc1N1CCC(O)CC1)CC1CCCO1 (centres undefined),5%,-7%
CCc1ccc(NC(=O)C(=O)NCC(c2cccnc2)N2CCN(Cc3ccccc3)CC2)cc1 (centres undefined),-30%,i
COc1ccccc1OCC(=O)Nc1ccccc1C(=O)N1CCCC1,-11%,i
CN(C)S(=O)(=O)c1ccc(N2CCCC2)c(C(=O)Nc2nc(-c3cc(F)ccc3F)cs2)c1,-8%,-1%
O=C(Cc1cccs1)NNC(=S)NC(=O)c1ccco1,-3%,-14%
O=C(Cn1ncc(N2CCCC2)c(Br)c1=O)c1ccc(Cl)cc1,-9%,-11%
Cc1ccc(Cn2c(C(=O)O)c(CNCc3ccccc3Cl)c3ccc(C)cc32)cc1,?,?
COCCNc1nc2cc(-c3ccccc3C)sc2c(=O)n1C,-24%,i
CCCCc1ccc(NC(=O)COCC)cc1,-8%,-13%
COCCN(CCOC)C(=O)N1CCOCC1,-16%,i
COc1ccc2oc(C(=O)OCC(=O)NC3CCCC3)c(C)c2c1,5%,-4%
CCOC(=O)C1CCCN(C(=O)c2cc(-c3ccco3)nc3ccccc23)C1 (centres undefined),1%,i
Cc1ccc2cc(C=C(C#N)C#N)c(Cl)nc2c1,24%,-19%
COc1cccc(C2c3c(oc4ccc(F)cc4c3=O)C(=O)N2CCCN2CCOCC2)c1 (centres undefined),-8%,-16%
C(=N\N=C\c1cccs1)/c1cccs1,-2%,-17%
Cc1ccccc1CNC(=O)C1CCCN(c2nnc(-n3c(C)ccc3C)s2)C1 (centres undefined),-25%,-18%
CC1=C(c2ccc(F)cc2)S(=O)(=O)N=C1N1CCC(C(=O)NCCc2ccco2)CC1,-8%,-6%
CCc1ccccc1N1CC(C(=O)Nc2cc(S(=O)(=O)N3CCCC3)ccc2Cl)CC1=O (centres undefined),-3%,-2%
COc1ccc(CN2C(=O)C(NC(=O)c3cccc(C)c3)(C(F)(F)F)N=C2c2ccccc2)cc1 (centres undefined),-4%,5%
CN1CCN(C(=O)c2ccc(Cn3cc(Cl)cn3)o2)CC1,-2%,-15%
CCCOc1ccc(CNC(=O)CCCn2ncn3c(cc4sc(CC)cc43)c2=O)cc1,-14%,-5%
O=C(O)C(S)C(S)C(=O)O (centres undefined),-12%,i
CC(C)(O)C#Cc1ccc(CN2CCN(Cc3ccsc3)C(CCO)C2)s1 (centres undefined),-15%,-15%
C=CCn1c(SCC(=O)c2[nH]c(C)c(C(=O)OC)c2C)nc2scc(-c3ccc(OC)c(OC)c3)c2c1=O,-18%,-13%
O=C(CN(Cc1ccco1)C(=O)CNS(=O)(=O)c1ccc(Cl)cc1)NCc1ccc(F)cc1,-13%,-18%
CCc1ccc(C(=O)NNc2ccc(S(N)(=O)=O)cc2)cc1,-11%,i
CCC(C(=O)N1CCN(c2ccccc2F)CC1)n1nc(C)c2sc3ccccc3c2c1=O (centres undefined),-17%,-5%
COC1=C(OC)C(=O)c2ccccc2C1=O,-13%,-16%
CCOC(=O)N1CCN(S(=O)(=O)c2cc([N+](=O)[O-])c(C)cc2C)CC1,-9%,i
CC1(C)C2CCC(C2)C1(C)N=C1OC(CCl)CS1 (centres undefined),-6%,-14%
C=CCNC(=S)NN=C1CCC(c2ccccc2)CC1 (centres undefined),1%,?
COc1ccccc1OCCCCn1c(-c2ccc(Cl)cc2)nc2ccccc2c1=O,1%,-4%
CC1=Nc2ccccc2/C1=C/c1sc(=N)n(-c2nccs2)c1O,?,-20%[1.46 µM]
CCc1cccc(NC(=O)Cc2cn(C)c3ccccc23)c1,-23%,i
CC(C)(C)c1ccc(-c2cc(C(=O)NNC(=O)Nc3ccccc3)c3ccccc3n2)cc1,?,-14%
Cc1cccc2nc(CSc3nc4ccccc4[nH]3)cn12,-15%,-18%
CCc1ccccc1NC(=O)N(C)CCc1c(C)nn(C)c1C,-4%,-1%
CCNCc1ccc(OCc2ccccc2F)c(OC)c1,-16%,-1%
Cc1[nH]c2c(C(=O)NCC3Cc4cccc(-c5cccnc5)c4O3)cccc2c1C (centres undefined),-15%,-8%
COc1ccc2oc(C(=O)OC(C)C(=O)NC3(C#N)CCCCC3)c(C)c2c1 (centres undefined),-7%,-20%
CCn1ccc(=O)c2cc3c(cc21)OCO3,-4%,-11%
COC(=O)CNC(=O)c1nn(-c2cccc(OC)c2)c(=O)c2ccccc12,-14%,.
O=C(NCc1ccccc1Cl)C1CCC(=O)N(C2CCCC2)C1 (centres undefined),-7%,i
COc1ccc2c(CC(=O)Nc3c(C)n(C)n(-c4ccccc4)c3=O)coc2c1,-6%,.
O=C(Nc1ccccc1)C1=C[C@H](c2ccc3c(c2)OCO3)C[C@H](OCCCCO)O1,-2%,-7%
O=c1ccccn1Cc1ccccc1F,-23%,-3%[1.46 µM]
Cc1ccccc1-c1cccc([C@@H]2C[C@H]3[C@H](CON3C)CN2Cc2cc(Cl)cc(Cl)c2)c1,-11%,-6%
C#CC1CCCCC1NC(=O)Nc1cnccc1C(F)(F)F (centres undefined),-16%,-19%
COc1cccc(N2CCN(C(=O)CN3C(=O)NC4(CCCC4)C3=O)CC2)c1,-13%,-8%
CCOc1cc(/C=N/n2cnnc2)cc(Br)c1O,-18%,-4%
Cn1c(=O)[nH]c(=O)c2c1nc(N1CCOCC1)n2CCSc1nnnn1-c1ccccc1,0%[7.34 µM],3%[7.34 µM]
COc1ccc(CCN(C)C(=O)c2c(C)nn(CC(C)C)c2Cl)cc1OC,-18%,-17%
COc1ccc(C(=O)Nc2ccnn2C2CCN(Cc3ccn[nH]3)CC2)cc1,9%[7.34 µM],-8%[7.34 µM]
COc1ccc(-c2noc(CNC(=O)Nc3ccc(F)cc3)n2)cc1,2%,-5%
Cc1cccc(NC(=O)CSc2nnnn2-c2cccnc2)c1,-13%,i
O=C(Nc1cccnc1N1CCOCC1)c1ccco1,4%,-11%

# An excerpt from above in order of length of the SMILES, lowest first.
SMILES,Vaccinia Venus,VACV mCherry inh
CCn1ccc(=O)c2cc3c(cc21)OCO3,-4%,-11%
CCNCc1ccc(OCc2ccccc2F)c(OC)c1,-16%,-1%
Cc1cccc2nc(CSc3nc4ccccc4[nH]3)cn12,-15%,-18%
CN1CCN(C(=O)c2ccc(Cn3cc(Cl)cn3)o2)CC1,-2%,-15%
COc1cccc(C2c3c(oc4ccc(F)cc4c3=O)C(=O)N2CCCN2CCOCC2)c1 (centres undefined),-8%,-16%
CCc1ccccc1N1CC(C(=O)Nc2cc(S(=O)(=O)N3CCCC3)ccc2Cl)CC1=O (centres undefined),-3%,-2%

# (listing goes on)
SMILES,Vaccinia Venus,VACV mCherry inh
Cc1ccc(Nc2ncnc3nc[nH]c23)cc1Cl,?,?
C=C1C(=O)c2sccc2C(c2ccc(OC)c(OC)c2)C1COC(C)=O (centres undefined),7.1µM*,5µM*
Cc1ccc(NC(=O)CSc2nc3c(c(=O)n(C)c(=O)n3C)n2C)cc1,-1%,-5%
COc1ccc(CN2COc3ccc4c(oc(=O)c5ccccc54)c3C2)cc1OC,-8%,-7%
COc1ccc(C(=O)/C=C/c2ccc(O)cc2)c2c1CC(O)C(C)(C)O2 (centres undefined),-23%,-25%
CC[C@@]12C(=O)N(c3cccc(Br)c3)C(=O)N1[C@H](c1ccc(F)cc1)[C@@H]1C(=O)N(C3CCCCC3)C(=O)[C@@H]12,-25%,-5%
CC(OC(=O)Cn1[nH]c(=O)c2ccccc2c1=O)C(=O)Nc1ccccc1[N+](=O)[O-] (centres undefined),-2%,-6%
Cc1nc2scc(C)n2c(=O)c1S(=O)(=O)N1CCN(c2cccc(C(F)(F)F)c2)CC1,-13%&-11%,-10%&-23%
COc1cccc(N2CCN(C(=O)CN3C(=O)NC(C)(c4ccc5ccccc5c4)C3=O)CC2)c1 (centres undefined),-17%,?
CCCS(=O)(=O)NCc1c(C)ncc2c1CCN(C(=O)c1cccc(C(F)(F)F)c1)C2,0%,-9%
COc1ccc(Cn2cc(S(=O)(=O)c3ccc(C)cc3)c(=O)c3cc(F)ccc32)cc1,-4%,-1%
COc1ccccc1CNC(=O)c1ccc(Br)o1,-7%,i
COc1ccc(C(C)=O)cc1OCc1ccccc1,-2%,-6%
CCc1ccc(Cc2cnc(NC(=O)c3ccc4c(c3)CC(c3ccccc3)OC4=O)s2)cc1 (centres undefined),?,?
O=C1CCCc2c1nc(-c1cccc(Cl)c1)n2O,-12%,i
CCCCc1c(-c2ccccc2OC)ncn1CCc1ccccc1OC,?,?
Cn1nc(-c2ccc(Cl)cc2)c2cc(C(=O)NCCN3CCOCC3)sc21,-10%,i
Cc1nc2sccn2c(=O)c1S(=O)(=O)NCC(C)c1ccccc1 (centres undefined),-3%,0%
CCn1cc(C(=O)N[C@@H](CCSC)C(=O)NCCCO)c(=O)c2cc3c(cc21)OCO3,-8%,i
CCN(C[C@H]1N[C@@](C)(C(=O)OC)[C@H]2C(=O)N(C)C(=O)[C@@H]12)C(=O)COC,8%,6%
COc1ccc(-c2c(C#N)c(SCC(=O)Nc3ccccc3)nc3c2CCCC3)cc1,-2%,i
COc1cc2c(=O)n(CC3CCCO3)c(=O)n(CC(=O)Nc3ccc(F)cc3F)c2cc1OC (centres undefined),-17%,-26%
CCCC(=O)N(CCc1ccc(OC)cc1)Cc1nc2ccccc2c(=O)[nH]1,-21%,-4%
COc1cc(C(=O)OCC(=O)N2CCCCC2C)cc(NC(=O)c2cccs2)c1OC (centres undefined),-6%,-7%
COC(=O)c1cc2oc3ccccc3c2n1Cc1ccccc1Cl,-7%,-6%
O=C(O)/C=C/C(=O)Nc1ccccc1-c1ccccc1,0%,.
c1ccc(N2CCN(c3nc4ccccc4[nH]3)CC2)nc1,-4%,3%
NS(=O)(=O)c1ccc(NC(=S)NCc2ccc3c(c2)OCO3)cc1,-9%,-21%
Cc1nnc(SCc2nnc(-c3cccs3)o2)n1Cc1ccccc1,-8%,i
Cn1c(=O)n(CCCc2ccccc2)c(=O)c2c1nc1n2CCN1c1ccc(F)cc1,-21%,-25%
CC(C)(O)C1O[C@H]2CC[C@@]3(C)[C@@](O)(CC[C@H]4Cc5c([nH]c6ccccc56)[C@@]43C)C2=CC1=O (some centres undefined),-11%&-21%&-7%,-30%
CCc1c(O)nc(SCc2ccc(F)cc2)[nH]c1=O,-1%,-6%
O=C(Cn1cc(S(=O)(=O)Cc2ccccc2F)c2ccccc21)Nc1ccc(F)c(Cl)c1,?,-13%
O=C(COc1ccccc1)NCC(=O)N1CCCC1,-10%,i
Cc1c(-c2ccc(Cl)cc2)c(=O)oc2c(CN3CCOCC3)c(O)ccc12,-11%[7.34 µM],-4%[7.34 µM]
COc1ccc(Cn2cc(CN3CC(N(C)C)CS3(=O)=O)nn2)cc1 (centres undefined),-1%,14%
Cc1c(NP(=O)(c2ccc(Br)cc2)c2ccc(Br)cc2)c(=O)n(-c2ccccc2)n1C,-13%,?
CCOc1ccc(S(=O)(=O)N/N=C\c2ccc3c(c2)OCO3)cc1,-1%,-6%
COc1ccc(NC(=O)c2nn(C)c3c2CS(=O)(=O)c2ccccc2-3)cc1Cl,-25%,-22%
O=C(c1ccc2c3c(cccc13)CC2)C1CCCN(C(=O)c2ccc[n+]([O-])c2)C1 (centres undefined),-2%[7.34 µM],-3%[7.34 µM]

# Some of the entries so far, bar-delimited:
SMILES | Vaccinia Venus | VACV mCherry inh
O=C(Cc1cccs1)NNC(=S)NC(=O)c1ccco1 | -3% | -14%
O=C(Cn1ncc(N2CCCC2)c(Br)c1=O)c1ccc(Cl)cc1 | -9% | -11%
Cc1ccc(Cn2c(C(=O)O)c(CNCc3ccccc3Cl)c3ccc(C)cc32)cc1 | ? | ?
COCCNc1nc2cc(-c3ccccc3C)sc2c(=O)n1C | -24% | i
CCCCc1ccc(NC(=O)COCC)cc1 | -8% | -13%
COCCN(CCOC)C(=O)N1CCOCC1 | -16% | i

# (next part)
SMILES,Vaccinia Venus,VACV mCherry inh
COc1cccc(CN(CC(=O)NCc2ccc(F)cc2)C(=O)c2ccco2)c1,-8%,-15%
O=C(Nc1ccc(F)cc1F)c1cc2nc(-c3ccco3)cc(C(F)(F)Cl)n2n1,-8%,-25%
COc1ccc(/C=C/c2cc(C(F)(F)F)on2)cc1,11%,-28%
O=C(CSc1c2c(nc3cc(Cl)ccc13)CCCC2)NCCCN1CCOCC1,-17%,-5%
COc1ccc(CCNC(=O)C(C)n2nc(C)c3sc4ccccc4c3c2=O)cc1OC (centres undefined),-15%,-27%
CC(=O)c1ccc(NC(=O)CNc2cc(S(=O)(=O)N3CCOCC3)ccc2N2CCCC2)cc1,-13%,i
CN(C)c1ccc(/C=C/c2sc3ccccc3[n+]2CCCCI)cc1,.,298%[activator]
CC(C)(C)Cc1c(C2CCCCC2)nc2ccc(Br)cn12,6%,3%
COc1ccccc1CNC(=O)c1cc2c(-c3ccc(Cl)cc3)nn(C)c2s1,-13%,-23%
